High-throughput results from PubChem.
Rce1 inh: blocks yeast Ras-converting enzyme. Q03530. yeast membranes, quenched prenylated peptide cleavage fluorescence. calls only. 0.27% of 290,000 active;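 active = fall in fluorescence gain of 50% or more versus controls, with final raw signal at or below 3038400; inconclusive = same 50% fall but final raw signal above 3038400; inactive = fall in fluorescence gain under 50%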;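 also: plate controls were neutral control wells for no effect and wells lacking membranes for full effect; tested at 10 µM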
Target sequence (Q03530 whole entry, looked up): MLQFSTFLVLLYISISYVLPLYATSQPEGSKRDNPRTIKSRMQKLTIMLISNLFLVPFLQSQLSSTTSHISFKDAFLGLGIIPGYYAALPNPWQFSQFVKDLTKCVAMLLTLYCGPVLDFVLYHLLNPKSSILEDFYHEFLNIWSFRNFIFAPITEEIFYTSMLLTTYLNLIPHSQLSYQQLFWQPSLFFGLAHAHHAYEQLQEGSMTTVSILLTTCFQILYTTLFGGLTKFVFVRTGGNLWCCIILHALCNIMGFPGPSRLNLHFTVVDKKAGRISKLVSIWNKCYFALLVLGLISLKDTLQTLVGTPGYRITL
eIF4H inh: inhibitors of RNA binding by human eIF4H; Q15056; eIF4H fluorescence polarization binding assay; inhibition, % at 35 µM; 0.94% of 290,000 active; AID 2012;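 active = 50% or more with normal probe brightness, or confirmed in later tests; inconclusive = above 50% with abnormal brightness, or retests that disagree; inactive = below 50% or failed in later tests; about a fifth of its hits are not listed in these tables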;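 also: calls also rest on retests at 20 µM and on dose response follow-up; 0% = protein and probe with vehicle and 100% = probe without protein; strong numbers were not always called active; many hits fall short of the cut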
UUG fidelity: alters start codon recognition fidelity in yeast; S. cerevisiae UUG-firefly luciferase reporter, luminescence/redox ratio; activity score, % at 18.7 µM; 0.13% of 350,000 active; AID 602363;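 active = replicate mean at a twofold rise or more, about +100% in these data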;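 also: firefly luciferase made from a UUG start codon reports start codon fidelity; reporter light over untreated wells divided by growth signal over untreated wells; some hits fall short of that in this replicate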
PABP polyA inh: PABP-poly(A) binding inhibition; PABP-poly(A) RNA binding, fluorescence polarization; 1% of 290,000 active; P11940; AID 2014; inhibition, % at 35 µM;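 active = 50% or more with normal probe brightness, or confirmed in later tests; inconclusive = above 50% with abnormal brightness, or retests that disagree; inactive = below 50% or failed in later tests; about a fifth of its hits are not listed in these tables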;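 also: calls also rest on retests at 20 µM and on dose response follow-up; controls were probe without protein and protein plus probe with vehicle; some compounds called inactive have numbers as strong as hits; many hits fall short of the cut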
Target sequence (P11940 whole entry, looked up): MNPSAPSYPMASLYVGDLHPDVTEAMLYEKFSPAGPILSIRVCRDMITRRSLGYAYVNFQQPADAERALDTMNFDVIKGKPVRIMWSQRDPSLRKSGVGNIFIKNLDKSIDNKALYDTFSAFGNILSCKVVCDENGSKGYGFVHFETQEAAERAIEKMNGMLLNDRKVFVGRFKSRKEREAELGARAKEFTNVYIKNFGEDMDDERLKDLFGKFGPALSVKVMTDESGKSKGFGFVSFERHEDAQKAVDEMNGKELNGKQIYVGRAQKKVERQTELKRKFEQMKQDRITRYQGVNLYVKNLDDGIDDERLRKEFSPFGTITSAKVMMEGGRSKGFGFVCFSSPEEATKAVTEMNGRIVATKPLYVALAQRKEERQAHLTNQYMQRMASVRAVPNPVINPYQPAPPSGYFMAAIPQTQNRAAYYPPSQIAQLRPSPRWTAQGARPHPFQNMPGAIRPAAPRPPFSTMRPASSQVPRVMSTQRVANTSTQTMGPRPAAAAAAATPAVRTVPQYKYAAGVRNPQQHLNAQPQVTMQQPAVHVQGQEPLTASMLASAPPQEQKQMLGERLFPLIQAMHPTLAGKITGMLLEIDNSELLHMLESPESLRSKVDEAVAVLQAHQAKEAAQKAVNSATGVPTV
CSC inhib: blocks cancer stem cells. cancer stem cell-like cells viability, luminescence. inhibition, % at 7.5 µM. 1.1% of 300,000 active. AID 2717;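 active = mean at 75% or more and at least half the replicates too; inconclusive = mean and replicates disagree; tested in HMLE shEcad cells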;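 also: 0% = median of negative and 100% = median of positive control wells; the first replicate is given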
HIV Env fusion: HIV envelope-mediated fusion inhibition; inhibition, % at 12.3 µM; HeLa-JRFL Env/CEM21 cell fusion, luciferase; 1.1% of 360,000 active;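 active = mean replicate inhibition score of at least 50 and every replicate individually at or above 50; inconclusive = only one of the two criteria met; inactive = mean below 50 and not all replicates reaching 50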;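 also: 0% = plate neutral controls and 100% = maraviroc near 300 nM; one replicate is shown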
MT1-MMP act inh: blocks activation of human MT1-MMP | P50281 | HT1080 RFP-PRO-GFP cells, GFP/RFP ratio fluorescence, overnight; percent of plate control window, DMSO zero | GFP/RFP ratio change, % at 20 µM | 0.061% of 360,000 active | AID 651647;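 active = GFP/RFP ratio change of at least 30% with cell ATP level not reduced by more than half and red fluorescence within 50% of control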; also: strong numbers were not always called active
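Read-out: GFP/RFP fluorescence ratio; Test system: RFP-PRO-GFP reporter HT1080 cells; Compound dosing: single-point 20 µM compound, 1% DMSO; Times: overnight compound exposure at 37 °C.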
eIF4H inh retest: second read-out of eIF4H inh, no call of its own (marks repeat the call); inhibition, %; compound at 20 µM; confirmation average;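 mean of two retest wells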
PABP polyA inh retest: recorded beside PABP polyA inh, whose call it bears; inhibition, %; compound at 20 µM; confirmation repeats;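 mean of two retest wells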
MT1-MMP act inh RFP: second read-out of MT1-MMP act inh, no call of its own (marks repeat the call); RFP signal change, %; measured here: RFP expression control read;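 0 = vehicle wells; hits needed this value within 50% of zero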
* = called active by the depositor; i = inactive; ? = inconclusive; / = no result given; & = joins results of further samples; [ ] = dose if it differs, or a comment.

SMILES	Rce1 inh	eIF4H inh	UUG fidelity	PABP polyA inh	CSC inhib	HIV Env fusion	MT1-MMP act inh	MT1-MMP act inh RFP	others
CCOc1ccc(C(=O)NCC(=O)OCC(=O)Nc2cccc(S(=O)(=O)N3CCCC3)c2)cc1	i	8	-10	8	-4	-30	-6	-2
O=C(Cc1ccc(Cl)c(Cl)c1)N/N=C/c1cccnc1	i	-6	-18	-7	-6	14	6	-3
C=CCn1c(SCC(=O)Nc2nccs2)nnc1-c1cc2cccc(OC)c2o1	i	6	-11	2	-1	-10	3	-2
C/C=C(\C)C(=O)Nc1cccc(C2=NOC3(C2)C[C@@H](C(N)=O)N(C(=O)c2ccccc2C(=O)c2ccccc2)C3)c1 (stereo partly drawn)	i	11	1	14	-2	-33	-3	-2
N#Cc1c(F)cccc1N1CCN(Cc2ccc3c(c2)OCO3)CC1	i	15	-9	18	8	0	-6	-3
CN1CCN(c2nc3c(c(=O)[nH]c(=O)n3C)n2Cc2ccccc2F)CC1	i	-1	-4	0	-9	/	-2	3
O=C1OC(c2ccccc2)=C/C1=C\N1CCOCC1	i	16	-2	11	-1	11	-10	2
O[C@@H]1CN(Cc2cccs2)[C@@H](c2ccccc2)C[C@H]1n1cc(-c2ccc(F)cc2)nn1	/	/	-5	/	/	-223	-3	-3
COc1ccc(CC(C)N2CCN(c3ccccc3)CC2)cc1OC (stereo not drawn)	i	-5	/	5	9	3	-2	3
Nc1nccnc1C(=O)OCC(=O)NNC(=O)c1ccccc1	i	42	-23	29	-3	8	-1	8
O=C(Nc1nc(-c2ccc(Cl)cc2)cs1)c1cccnc1	i	-3	-12	9	9	3	5	-3
O=C(NCc1cccnc1)c1ccccc1NS(=O)(=O)c1ccc(F)cc1F	i	-8	-3	-4	/	16	-3	-5
Cc1ccccc1Oc1ccc2c(c1)[C@@H]1C[C@H]3[C@@H](C(=O)N1CC2)[C@H](C)ON3C	/	/	-8	/	/	35	-4	-17
COc1ccccc1NC(=O)COC(=O)c1cc([N+](=O)[O-])ccc1N1CCCC1	/	/	-4	/	9	10	-3	-7
Oc1cccc2cc(-c3ccncc3)cnc12	/	/	-52	/	/	-77	-9	-7
Fc1ccccc1CNC(=S)NCc1ccc(Cl)cc1	i	-15	-24	0	4	/	-4	2
COc1ccc(S(=O)(=O)N2CCCCC2)cc1C(=O)Nc1cc(C)on1	i	-4	-11	-2	-10	1	-1	3
O=C(Nc1ccc(F)cc1)C(=O)C1C(=O)Nc2ccccc21 (stereo not drawn)	i	-9	-7	0	-12	7	-3	2
CCC(C)(C)NC(=O)C(c1cccs1)N(C(=O)c1ccn[nH]1)c1ccccc1 (stereo not drawn)	i	-2	/	-1	-16	-22	-3	0
c1coc(Cn2c(SCc3nc4ccccc4[nH]3)nnc2-c2cccs2)c1	i	2	-10	4	5	-50	-7	-2
O=C(CN(CC1CCCO1)C(=O)CNS(=O)(=O)c1ccc(Cl)cc1)NC1CCCCC1 (stereo not drawn)	i	-3	-9	-19	6	2	-2	1
C[C@H](O)[C@@H]1CN2CCc3c([nH]c4ccccc34)[C@@H]2C[C@@H]1N(C)C(=O)Nc1cccc2ccccc12	/	/	-3	/	/	14	-5	4
COc1ccc(C(C)=O)cc1CN1C(=O)C(C)N(c2ccc(C)cc2)C1=O (stereo not drawn)	i	-7	-8	-2	-13	-7	1	-3
COc1ccccc1NC(=O)CSc1nnc(NC(=O)c2ccco2)s1	i	-2	2	10	-19	/	1	4
CN(C)c1ccc(S(=O)(=O)NCC(=O)NCc2ccccc2)cc1[N+](=O)[O-]	i	0	-14	-10	-5	6	4	-1
CC(=O)C1=C(O)C(=O)N(CCN2CCOCC2)C1c1ccccc1 (stereo not drawn)	i	7	-1	14	-6	/	-3	1
Cc1cc(NS(=O)(=O)c2ccc(NC(=O)c3ccc(Cl)cc3Cl)cc2)no1	i	3	-13	-7	16	-33	3	4
Cc1ccc(NC(=O)COC(=O)CCC(=O)c2cccs2)cc1C	i	2	-6	4	-4	5	-1	-1
O=C(COC(=O)c1cnccn1)c1ccc([N+](=O)[O-])cc1	i	-4	-18	-4	-7	-2	-4	1
Cc1cc([N+](=O)[O-])nn1Cc1ccccc1F	i	1	-7	-4	/	-29	1	-1
Cc1cc(C)c(OCCCCN2CCC(C)CC2)c(Br)c1	i	14	/	-7	82*	30	3	5
c1ccc(OCCCn2nnc(-c3cccnc3)n2)cc1	i	-2	-15	5	-6	/	7	-5
CCC(=O)NC(=S)Nc1ccccc1OC	i	10	-15	-8	-1	/	6	18
C/C(=N/NC(=O)CNC(=O)COc1cccc(C)c1)c1ccco1	i	-2	/	-5	-16	-6	-2	0
O=[N+]([O-])c1ccc(CSC2=NCCN2)cc1	i	-2	-18	11	/	-4	3	2
COC(=O)C1CCN(C(=O)c2ccc(OC3CCN(Cc4ccccn4)CC3)cc2)CC1	i	-1	/	-6	-5	-9	-5	-2
N#C/C(=C\c1ccc(O)c(O)c1)C(=O)NCCc1ccccc1	/	/	-50	/	56	/	2	-7
O=C(NCc1nnc(SCC(=O)N2CCN(c3ccccc3)CC2)o1)c1c(F)cccc1F	i	7	4	13	11	9	/	/
Cc1c(C)c2c(OCC(=O)NCC(C)C)cc3c(c2oc1=O)CCC(C)(C)O3	i	-7	-7	0	-2	5	-1	-10
COc1ccccc1N1CCN(S(=O)(=O)c2ccc(-c3cnc(C4CC4)o3)cc2)CC1	i	5	-17	8	-3	8	1	-4

An excerpt from further up, as a working copy:
SMILES	Rce1 inh	eIF4H inh	UUG fidelity	PABP polyA inh	CSC inhib	HIV Env fusion	MT1-MMP act inh	MT1-MMP act inh RFP	others
Cc1c(C)c2c(OCC(=O)NCC(C)C)cc3c(c2oc1=O)CCC(C)(C)O3	i	-7	-7	0	-2	5	-1	-10
COc1ccccc1N1CCN(S(=O)(=O)c2ccc(-c3cnc(C4CC4)o3)cc2)CC1	i	5	-17	8	-3	8	1	-4

(continued)
SMILES	Rce1 inh	eIF4H inh	UUG fidelity	PABP polyA inh	CSC inhib	HIV Env fusion	MT1-MMP act inh	MT1-MMP act inh RFP	others
Cc1ccc(-c2csc(NCCn3c(-c4ccncc4)nc4cc(C(F)(F)F)ccc43)n2)cc1	/	/	-24	/	?	4	5	-7
COC(=O)C1=C(C)C(c2ccc(OC)cc2)NC(=O)N1 (stereo not drawn)	i	-12	/	-7	-5	14	1	0
O=C(CCS(=O)(=O)c1cccc2nsnc12)N1CCN(c2ccccc2F)CC1	i	-3	-5	-4	4	-49	0	7
O=C(CCn1ccc2cc(S(=O)(=O)N3CCCC3)ccc21)NCc1ccccc1	i	0	-4	-4	-7	0	2	0
COc1ccc(NC(=O)c2ccccc2[N+](=O)[O-])cc1OC	i	-1	-8	14	0	16	6	5
COc1ccc(OCCCC(=O)Nc2cccc(S(=O)(=O)N3CCCCCC3)c2)cc1	/	/	-22	/	-2	/	5	-15
CC(=O)Nc1ccc(NC(=O)C/C(C)=N/NC(=O)C(=O)N2CCCC2)cc1	i	-8	/	-12	-13	-6	-2	-1
COc1ccccc1C(=O)NCCCNc1nc2cc(C)cc(C)c2cc1C#N	/	/	-4	/	/	-2	0	-1
CCOC(=O)c1ccc(NC(=O)C2CCCN(c3cnccn3)C2)cc1 (stereo not drawn)	i	-8	-11	-8	23	-19	-1	-1
O=C1CC[C@@H](CN(Cc2ccccn2)Cc2nc(-c3ccc(C(F)(F)F)cc3)no2)N1	i	-11	/	0	-5	17	-4	2
CC(=O)c1ccc(N2CCN(C(=O)COc3ccc4ccccc4c3)CC2)cc1	/	/	0	/	/	-7	2	5
N#Cc1ccsc1NC(=O)c1cnccn1	i	/	-25	/	-8	-38	/	/
CC(O)(c1cccc(F)c1)c1nc(-c2cc3ccccc3o2)cs1 (stereo not drawn)	/	/	-15	/	/	33	-4	-9
CCn1c2ccccc2c2nnc(SCC(=O)NC3CCS(=O)(=O)C3)nc21 (stereo not drawn)	i	-18	/	-7	9	-8	1	0
COc1cc(OC)cc(C(=O)O/N=C(\N)c2ccccn2)c1	i	4	-33	2	-8	-39	7	1
Cc1ccc(C(C)C)c(OCC(=O)N/N=C/c2ccc(S(=O)(=O)O)o2)c1	i	0	/	-7	-9	-11	-1	-1
COC(=O)c1ccc(C)c(NC(=O)c2nn(C)c(=O)c3ccccc23)c1	i	14	-7	2	/	5	3	2
C/C(=N\NC(=O)Cn1nc(C)c([N+](=O)[O-])c1C)c1ccc(O)cc1	i	1	/	-2	-2	11	3	7
COC(=O)CCNC(=O)CCc1ccc(S(=O)(=O)N2CCCCCC2)cc1	/	/	6	/	-11	/	1	1
Cc1ccc(Nc2nc(-c3c(C)nc4ccccn34)cs2)cc1	i	-6	1	2	/	?	-8	-18
O=C(Cc1cc(=O)[nH]c(=O)[nH]1)N1CCN(C(=O)c2ccco2)CC1	i	-10	-3	1	7	-15	-3	4
COc1ccc(C(C)(C)C)cc1S(=O)(=O)N1CCC(C(N)=O)CC1	i	-2	/	-5	-15	31	-1	1
OC(CNC1CCCCC1)COCCOc1ccc(Br)cc1 (stereo not drawn)	i	0	4	-4	58	-1	-2	-2
Cc1cccc(CC(=O)Nc2ccc(C(=O)N3CCOCC3)cc2)c1	i	-12	8	2	-16	-2	0	1
COc1ccc(-c2csc(N3C(=O)CNC3=S)n2)cc1	i	-1	/	4	9	-18	5	6
CCN1CCN(c2ccc(NC(=O)c3cccc(N4CCCC4=O)c3)cc2)CC1	i	2	-3	2	-8	-7	1	4
CNS(=O)(=O)c1cc(Cl)ccc1Sc1ccccc1C(=O)O	i	6	-17	6	-9	2	3	3
Nc1cc(Cl)ccc1N1CCCC1	i	108	/	2	/	-22	3	2	eIF4H inh retest=-5;PABP polyA inh retest=3
COc1ccc(NC(=S)N(CCCOC(C)C)C2CCN(C(C)=O)CC2)cc1Cl	i	-5	-18	0	-10	4	6	9
Cc1ccc(S(=O)(=O)C(F)(F)F)cc1NC(=O)c1cccnc1	i	-1	-5	-12	-12	-97	-2	0
Cc1[nH]c2ccccc2c1C(=O)CSc1ccc(Cl)cc1	i	3	-3	-6	-23	-49	5	-2
CCC(=O)N1CCc2cc(S(=O)(=O)NCCC(=O)Nc3ccc(OC)cc3)ccc21	i	11	5	2	-19	-2	-4	-1
Fc1ccc(Cn2c(SCc3ccc(F)c(F)c3)nnc2C(F)(F)F)cc1	i	5	10	-9	-7	37	-7	-3
CCOc1cc(S(=O)(=O)N2CCCCC2)ccc1Cl	i	-4	-34	-10	-23	/	-7	-3
CN(C(=O)c1ccc(N2CCOCC2)c([N+](=O)[O-])c1)C1CCCCC1	i	-6	-4	0	-2	-4	1	-6
CCOC(=O)c1sc(NC(=O)CSCc2c(C)noc2C)nc1C	/	/	-6	/	-7	/	-2	2
CC(C)COC(=O)N(C)C[C@@H]1OCc2cnnn2CCCC(=O)N([C@@H](C)CO)C[C@@H]1C	/	/	-20&0&-6	/	/	-10[16.7 µM]	-1	2
CN(Cc1cnn(C)c1)C(=O)C1CCC(=O)N(C2CCCCCC2)C1 (stereo not drawn)	/	6	-17	-5	-4	-317	0	6
Cc1[nH]nc(Nc2ccc(Br)cc2)c1[N+](=O)[O-]	i	-6	/	4	12	-27	1	-2
O=C(N/N=C/c1ccco1)c1cc(-c2ccc(Br)s2)[nH]n1	i	8	/	23	-7	-4	-2	-4
C/C(=N\NC(=O)c1cccc(S(=O)(=O)N2CCOCC2)c1)c1cc2ccccc2o1	i	-6	-13	3	-7	3	5	0

A portion of the library; count on the stated rates, not on these rows.
